Env fusion inh: inhibitors of HIV Env-mediated cell fusion | HeLa-JRFL Env/CEM21 cell fusion, luciferase | inhibition, % at 12.3 µM | 360,000 tested, 1.1% active | AID 651610;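 active = mean replicate inhibition score of at least 50 and every replicate individually at or above 50; inconclusive = only one of the two criteria met; inactive = mean below 50 and not all replicates reaching 50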;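 note: 0% = plate neutral controls and 100% = maraviroc near 300 nM; one replicate is shown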
Rce1 inh: inhibitors of yeast Ras-converting enzyme | calls only | Q03530 | 290,000 tested, 0.27% active | AID 2563 | yeast membranes, quenched prenylated peptide cleavage fluorescence;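 active = fall in fluorescence gain of 50% or more versus controls, with final raw signal at or below 3038400; inconclusive = same 50% fall but final raw signal above 3038400; inactive = fall in fluorescence gain under 50%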;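 note: plate controls were neutral control wells for no effect and wells lacking membranes for full effect; tested at 10 µM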
Yeast UUG start: yeast start codon fidelity modulation | S. cerevisiae UUG-firefly luciferase reporter, luminescence/redox ratio | activity score, % at 18.7 µM | 350,000 tested, 0.13% active | AID 602363;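 active = replicate mean at a twofold rise or more, about +100% in these data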;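 note: firefly luciferase made from a UUG start codon reports start codon fidelity; reporter light over untreated wells divided by growth signal over untreated wells; some hits fall short of that in this replicate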
CSC inhib: blocks cancer stem cells; cancer stem cell-like cells viability, luminescence; inhibition, % at 7.5 µM; 300,000 tested, 1.1% active;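 active = mean at 75% or more and at least half the replicates too; inconclusive = mean and replicates disagree; tested in HMLE shEcad cells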;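 note: 0% = median of negative and 100% = median of positive control wells; the first replicate is given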
MT1-MMP act inh: blocks activation of human MT1-MMP; GFP/RFP ratio change, % at 20 µM; P50281; HT1080 RFP-PRO-GFP cells, GFP/RFP ratio fluorescence, overnight; percent of plate control window, DMSO zero; 360,000 tested, 0.061% active;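 active = GFP/RFP ratio change of at least 30% with cell ATP level not reduced by more than half and red fluorescence within 50% of control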; note: strong numbers were not always called active
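Test system: HT1080 cells expressing an RFP-PRO-GFP fluorescent reporter construct / Compound dosing: single-point 20 µM compound, 1% DMSO / Schedule: cells overnight before dosing, compound overnight, 37 °C, 5% CO2 / Evaluation: GFP/RFP fluorescence ratio / Control set: DMSO and RFP-L50D-GFP cell wells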
eIF4H inh: inhibitors of RNA binding by human eIF4H. Q15056. eIF4H fluorescence polarization binding assay. inhibition, % at 35 µM. 290,000 tested, 0.94% active. AID 2012;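 active = 50% or more with normal probe brightness, or confirmed in later tests; inconclusive = above 50% with abnormal brightness, or retests that disagree; inactive = below 50% or failed in later tests; about a fifth of its hits are not listed in these tables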;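 note: calls also rest on retests at 20 µM and on dose response follow-up; 0% = protein and probe with vehicle and 100% = probe without protein; strong numbers were not always called active; many hits fall short of the cut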
PABP FP inh: blocks human PABP binding to poly(A) RNA; P11940; fluorescence polarization; inhibition, % at 35 µM; 290,000 tested, 1% active; AID 2014;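 active = 50% or more with normal probe brightness, or confirmed in later tests; inconclusive = above 50% with abnormal brightness, or retests that disagree; inactive = below 50% or failed in later tests; about a fifth of its hits are not listed in these tables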;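 note: calls also rest on retests at 20 µM and on dose response follow-up; controls were probe without protein and protein plus probe with vehicle; some compounds called inactive have numbers as strong as hits; many hits fall short of the cut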
Target sequence (P11940 whole entry, looked up): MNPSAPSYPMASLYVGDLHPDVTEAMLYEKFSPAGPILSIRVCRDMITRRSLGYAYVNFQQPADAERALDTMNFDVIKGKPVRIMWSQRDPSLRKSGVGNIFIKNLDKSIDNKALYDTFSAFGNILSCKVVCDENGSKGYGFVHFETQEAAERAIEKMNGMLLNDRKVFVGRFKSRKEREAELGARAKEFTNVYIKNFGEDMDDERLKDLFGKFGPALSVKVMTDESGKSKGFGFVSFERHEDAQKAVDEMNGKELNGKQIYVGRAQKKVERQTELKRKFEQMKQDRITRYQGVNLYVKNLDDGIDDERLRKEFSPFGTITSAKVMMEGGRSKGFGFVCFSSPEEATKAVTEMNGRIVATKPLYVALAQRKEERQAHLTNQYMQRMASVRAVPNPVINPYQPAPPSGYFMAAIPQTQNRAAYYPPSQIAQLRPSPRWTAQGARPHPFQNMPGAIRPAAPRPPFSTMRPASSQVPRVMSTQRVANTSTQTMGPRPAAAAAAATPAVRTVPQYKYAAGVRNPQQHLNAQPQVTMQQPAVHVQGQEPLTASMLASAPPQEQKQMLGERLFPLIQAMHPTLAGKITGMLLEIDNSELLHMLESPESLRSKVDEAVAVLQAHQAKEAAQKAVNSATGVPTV
MT1-MMP act inh RFP: further read-out of MT1-MMP act inh, marked with its call; RFP signal change, %; measured here: RFP expression control read;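 0 = vehicle wells; hits needed this value within 50% of zero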
Numbers without * were called inactive; i = inactive; ? = inconclusive; nt = not tested or not shown.

SMILES	Env fusion inh	Rce1 inh	Yeast UUG start	CSC inhib	MT1-MMP act inh	MT1-MMP act inh RFP	eIF4H inh	PABP FP inh
COCC(=O)Nc1cc(C(=O)Nc2cccc(C)c2C)ccc1Cl	nt	i	-2	-3	-4	-3	3	-2
CC1(C)Cc2ccccc2C(NNC(=O)c2ccncc2)=N1	nt	i	-11	3	-6	3	-2	-5
CCCCC1CCC(c2nc(-c3cccnc3)no2)CC1 (centres undefined)	nt	i	-14	-3	1	-2	-4	-20
CC(C)(C)C(=O)Nc1cccc2[nH]ncc12	5	nt	nt	1	-1	2	2	2
C=C1CSc2nc(=O)c3c4c(sc3n21)CCC4	-87	nt	-6	-4	3	7	-4	6
CCOc1ccccc1CN1CCN(C2CCC2)CC1CCO (centres undefined)	3	i	-1	-20	-6	0	5	1
COc1ccc(Nc2cc(C)nc3c(C)cccc23)cc1OC	18	i	-4	6	0	-1	-4	0
Cc1ccc(Nc2nc(C(=O)NCc3ccco3)cs2)cc1	24	i	-7	3	-7	-20	-8	4
O=C(CCSCc1cccc(F)c1)NCCc1ccccc1	-17	i	nt	-11	4	3	-13	6
COCCNC(=O)C1CCCN(C(=O)C2(c3ccc(Cl)cc3)CCCC2)CC1 (centres undefined)	-56	nt	-9	nt	-2	-3	nt	nt
COc1ccc(Cl)cc1S(=O)(=O)N1CCN(Cc2ccc3c(c2)OCO3)CC1	-10	i	18	-4	-4	-4	6	10
COc1ccc(C(=O)NCC(=O)NCCc2c[nH]c3ccccc23)cc1OC	-5	i	nt	-5	1	2	-14	-3
COc1ccc(/C=N/NC(=O)CCc2nc3ccccc3[nH]2)cc1	nt	i	-27	1	-2	3	5	-3
COc1ccc2nc(NC(=O)c3cccnc3SC)sc2c1	-101	i	-6	-14	-1	2	6	-12
CCN(CC)Cc1c(O)ccc2c(C)c(CC(=O)OC)c(=O)oc12	-24	?	-17	-11	4	-6	nt	nt
COc1ccc(OCC(O)Cn2c(N3CCCCC3)nc3c2c(=O)n(C)c(=O)n3C)cc1 (centres undefined)	-1	i	16	-13	4	3	7	5
NS(=O)(=O)c1ccc(CCNC(=O)CSCC(=O)Nc2ccc(Cl)cc2)cc1	1	nt	-23	nt	-2	1	nt	nt
N#C/C(=C\C=C\c1ccccc1[N+](=O)[O-])C(=O)NCc1ccccc1	-254	i	-2	56	-37	-17	8	4
Cn1c(SCc2nnc3n2CCCCC3)nc2ccccc21	-68	i	-10	4	0	5	-2	-8
CC1CCCCN1C(=O)/C(=C\c1ccccc1)c1ccccc1 (centres undefined)	-39	i	-5	nt	-15	-12	-11	25
COc1cccc(NC(=O)C/C(C)=N/NC(=O)C2CCCCC2)c1	-42	i	-1	nt	-3	5	-11	2
O=c1nc(-c2ccccc2)nc(-c2ccccc2)[nH]1	4	i	-5	-3	-1	-2	-5	-3
C[C@H](CO)N1C[C@H](C)[C@H](CN(C)Cc2ccc(Oc3ccccc3)cc2)Oc2ccc(NC(=O)Nc3cccc4ccccc34)cc2CC1=O	-3	nt	-9	22	6	1	nt	nt
COCCCNC(=O)CN1CCN(Cc2ccc(Cl)cc2)C1=O	0	i	-34	-1	2	0	-3	-1
CC(C)Cn1c(N)c(C(=O)COC(=O)Cc2cccs2)c(=O)n(C)c1=O	-11	i	-8	-4	6	-4	-4	-1
CC(C)CC(NC(=O)OC(C)(C)C)C(=O)NC(C(=O)NC(C)C(N)=O)C(C)C (centres undefined)	-30	i	4	12	6	3	-2	4
NC(=O)c1ccc(NC(=O)COc2cccc3c2CCNC3=O)cc1	-14	i	-22	nt	0	6	nt	nt
COc1cc(SC)ccc1C(=O)Nc1cccc(S(=O)(=O)NC2=NCCCCC2)c1	-18	i	10	-6	0	-8	nt	nt
O=[N+]([O-])c1ccc(O)c(Nc2ncnc3ccccc23)c1	-3	i	nt	13	-1	-5	-5	11
Nc1c(C(=O)NCc2ccccc2)nnn1Cc1cccc(Cl)c1	-121	i	-17	49	-3	-11	-3	-1

Sorted by molecular weight (rising): some entries from above.
SMILES	Env fusion inh	Rce1 inh	Yeast UUG start	CSC inhib	MT1-MMP act inh	MT1-MMP act inh RFP	eIF4H inh	PABP FP inh
O=c1nc(-c2ccccc2)nc(-c2ccccc2)[nH]1	4	i	-5	-3	-1	-2	-5	-3
O=[N+]([O-])c1ccc(O)c(Nc2ncnc3ccccc23)c1	-3	i	nt	13	-1	-5	-5	11
COc1cccc(NC(=O)C/C(C)=N/NC(=O)C2CCCCC2)c1	-42	i	-1	nt	-3	5	-11	2
N#C/C(=C\C=C\c1ccccc1[N+](=O)[O-])C(=O)NCc1ccccc1	-254	i	-2	56	-37	-17	8	4
NC(=O)c1ccc(NC(=O)COc2cccc3c2CCNC3=O)cc1	-14	i	-22	nt	0	6	nt	nt
COCCCNC(=O)CN1CCN(Cc2ccc(Cl)cc2)C1=O	0	i	-34	-1	2	0	-3	-1
Nc1c(C(=O)NCc2ccccc2)nnn1Cc1cccc(Cl)c1	-121	i	-17	49	-3	-11	-3	-1
CC(C)Cn1c(N)c(C(=O)COC(=O)Cc2cccs2)c(=O)n(C)c1=O	-11	i	-8	-4	6	-4	-4	-1
CC(C)CC(NC(=O)OC(C)(C)C)C(=O)NC(C(=O)NC(C)C(N)=O)C(C)C (centres undefined)	-30	i	4	12	6	3	-2	4
COc1cc(SC)ccc1C(=O)Nc1cccc(S(=O)(=O)NC2=NCCCCC2)c1	-18	i	10	-6	0	-8	nt	nt
C[C@H](CO)N1C[C@H](C)[C@H](CN(C)Cc2ccc(Oc3ccccc3)cc2)Oc2ccc(NC(=O)Nc3cccc4ccccc34)cc2CC1=O	-3	nt	-9	22	6	1	nt	nt

Later entries
SMILES	Env fusion inh	Rce1 inh	Yeast UUG start	CSC inhib	MT1-MMP act inh	MT1-MMP act inh RFP	eIF4H inh	PABP FP inh
Cc1ccc2nc(N(CCCN(C)C)C(=O)c3ccc(S(=O)(=O)N4CCOCC4)cc3)sc2c1	3	i	-4	0	5	3	-14	-1
Cc1nc(-c2ccc(-n3nncc3-c3ccco3)cc2)cs1	10	i	-24	-15	1	-2	7	-6
CCOc1ccc(OCCCC(=O)NC2=NCCS2)cc1	1	i	-16	-11	1	5	-10	4
Cc1c(C(=O)O)oc2ccc3c(c12)C(O)CC(C)(C)O3 (centres undefined)	1	i	-6	-8	8	4	23	8
O=c1c2ccccc2oc2nc3n(c(=O)c12)CCCS3	nt	i	nt	-5	9	0	2	5
CC1=CC(C)[C@@H]2COC(c3ccc(O)cc3)[C@H]1C2C (some centres undefined)	0	i	-11	27	-8	-8	10	5
CCOC(=O)C(Oc1ccc(=O)n(-c2ccccc2)n1)C(C)=O (centres undefined)	-20	i	-16	-19	7	3	-8	0
COC(=O)c1cc(N/C(N)=N/c2nc(C)cc(C)n2)cc(C(=O)OC)c1	-25	nt	-10	nt	0	1	nt	nt
Cc1ccccc1-c1ccccc1CN1[C@@H](C(C)C)COCCS1(=O)=O	1	nt	-4	nt	-3	0	nt	nt
CC(C)C(=O)NNc1ccccc1	4	i	nt	-2	-3	4	5	3
COc1ccc(-n2nc(C(=O)NCC(=O)N3CCOCC3)c3ccccc3c2=O)cc1Cl	-9	i	-4	-15	3	3	12	2
COc1cc(NS(=O)(=O)c2ccc(NC(=O)COc3ccc(C)cc3)cc2)nc(OC)n1	24	i	4	-5	-7	-3	2	10
COC(=O)C1=C(C)NC(=O)CC1c1cccc(OC)c1OC (centres undefined)	nt	i	2	-4	9	0	-2	-8
O=C1c2ccccc2C(=O)N1CN(C(=O)COc1ccc(Cl)cc1Cl)c1cccc(F)c1	nt	i	-11	-22	1	-5	-6	-4
COc1cc(NC(=O)c2ccc3c(c2)OCO3)ccc1NC(=O)C(C)C	-17	i	-17	-11	4	-1	0	-5
COc1cc(OC)cc(C(=O)NC2CCCN(Cc3ccc(Cl)cc3)C2)c1 (centres undefined)	17	i	-2	7	2	2	9	13
O=C(NC1CC2CCCC(C1)N2Cc1ccco1)NC12CC3CC(CC(C3)C1)C2 (centres undefined)	-51	i	-9	22	-4	-6	-8	-4
CCC(C)c1ccccc1N1CC(C(=O)Nc2ccccc2N2CCCC2)CC1=O (centres undefined)	-185	i	7	-7	-3	-1	2	29
Cc1nc2nc(C)c(NS(=O)(=O)c3ccc(Cl)cc3)c(=O)n2[nH]1	-4	nt	-9	-1	0	1	-1	-2
O=C(CN1CCN(c2ncccn2)CC1)N1CCCC1	-2	i	nt	-1	3	4	10	2
Cc1ccc(C(=O)Cn2nnc3ccccc32)cc1	nt	i	-14	2	-1	4	?	?
CN(CC(=O)NCc1cccs1)S(=O)(=O)c1cccc2nsnc12	2	i	-5	-11	-1	0	7	0
NC(=S)N/N=C1\c2ccccc2-c2c(C(=O)O)cccc21	-1	i	0	-9	-2	1	-1	8
CCSc1ncnc2c(C#N)c3n(c12)CCCCC3	nt	i	-6	-9	-5	-1	-8	-12
COc1ccc(CNC(=O)Cn2nc(C(F)(F)F)c3c2CCC3)cc1	-88	i	-4	1	1	-3	-2	6
CN(C)CC(C)(C)CNS(=O)(=O)c1ccc(Cl)s1	1	i	nt	-1	2	3	1	30
COc1ccccc1N1CCN(CC(O)COc2ccc3c(c2)CCC3)CC1 (centres undefined)	nt	i	-6	17	5	6	-3	-11
CCN(CC)CC(=O)NC1CC(C)(C)Cc2c1cnn2-c1ccc(F)cc1 (centres undefined)	3	i	-20	-17	-2	1	10	3
COc1ccc(C(CC(=O)NCC(OC)OC)NS(=O)(=O)c2ccc(Cl)cc2)cc1 (centres undefined)	-12	i	nt	3	0	4	-5	2
COc1ccc(NC(=O)COc2ccc(N(C)S(=O)(=O)c3ccc(C)cc3)cc2)cc1	-40	i	7	10	-1	-18	3	13
CC(C)CNc1ncnc2c1ncn2[C@H]1CN(Cc2ccc(Cl)cc2)C[C@@H](CO)O1	16	nt	1	nt	-1	-5	nt	nt
CCN(Cc1ccccc1)C(=O)c1ccc(CS(=O)c2ccccc2C)o1 (centres undefined)	9	i	-8	-2	1	3	0	12
COc1ccccc1NC(=O)COC(=O)C1CC2C=CC1C2 (centres undefined)	-3	i	nt	-11	4	5	4	-6
Cn1c(NCc2cccnc2)nc2cc(-c3ccc(F)cc3)sc2c1=O	-25	nt	-9	nt	11	-9	nt	nt
CCSc1nnc(NC(=O)c2ccc3nc[nH]c3c2)s1	-33	nt	-15	-17	-4	1	nt	nt
O=C(NC1CCN(C(=O)Nc2cccc(F)c2)CC1)c1ccco1	2	i	-8	nt	1	3	-4	6
COc1ccc2c(c1)C(=NNC(=O)c1ccccn1)c1cc(OC)ccc1-2	-51	i	nt	nt	-2	-7	18	18
Cc1ccc2nc(/C(C#N)=C\c3cc(C)n(-c4cccc([N+](=O)[O-])c4)c3C)[nH]c2c1	37	i	-9	nt	-1	-13	13	15
CCOC(=O)CSC1=C(C#N)C(c2ccc3c(c2)OCO3)CC(=O)N1 (centres undefined)	-103	i	-5	-13	-5	-11	-3	3
CC(C)Cc1nc2oc3c(NCCCN4CCOCC4)ncnc3c2c2c1CCC2	34	i	nt	44	14	4	3	-2

Bioassay records (PubChem)
